Sfp PPTase inh = qHTS Assay for Inhibitors of Bacillus subtilis Sfp phosphopantetheinyl transferase (PPTase); Biochemical Sfp PPTase activity, qHTS; 4'-phosphopantetheinyl transferase ffp (Bacillus subtilis), Q9F4F7; hit rate 3.5% among 310,000; Potency, µM, for the others: max response, negative = inhibition, hits mostly inhibitors; active = well fitted inhibition curve with a large enough effect; inconclusive = small, poorly fitted or top-dose-only effect, or another doubt; inactive = no such curve, though single readings can be large or run the other way;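 also: the enzyme is Sfp with the accession as filed and its product quenches rhodamine fluorescence; potency is read from the fitted curve at half-maximal effect; 0% = enzyme reaction without inhibitor and -100% = no enzyme wells; top concentration of the series not given in the record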
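Fluorescence-quenching assay with 15 nM Sfp, 5 uM rhodamine-CoA and 12.5 uM BHQ-2-labelled ybbR peptide in pH 7.6 Hepes/MgCl2 buffer. Enzyme was pre-incubated with compound for 15 min at room temperature. Rate was taken from the 30-min fluorescence change (525/598 nm).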
Menin MLL FP FL = qHTS Assay for Inhibitors Targeting the Menin-MLL Interaction in MLL Related Leukemias: Competition With Fluorescein Labeled MLL-derived Peptide; 290,000 tested, under 10 active; FP activity change, % at 61.4 µM; AID 1766, 2009; Fluorescence polarization, fluorescein-MLL peptide displacement from menin; inconclusive = falling polarisation curve, or a change in total fluorescence; inactive = total fluorescence flat and polarisation flat or rising; no compound was filed as active; the % refers to the polarisation; negative = inhibition;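 also: % of control where 0% means no effect; inhibitors lower the polarisation; unlabelled MLL peptide was the positive control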
gsp ag = qHTS for Agonist of gsp, the Etiologic Mutation Responsible for Fibrous Dysplasia/McCune-Albright Syndrome: qHTS. gsp mutant cells, cAMP HTRF, 30 min; control for the full effect not named in the record. AID 624287, 2012. Potency, µM (top dose mostly 76.9 µM), without a hit: top-dose activation (cAMP increase), most hits filed as activators. hit rate 0.13% among 340,000; active = well fitted activation curve with a large enough effect; inconclusive = small, poorly fitted or top-dose-only effect, or another doubt; inactive = no such curve, though single readings can be large or run the other way; cell line not stated here;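 also: phosphodiesterase inhibitor Ro 20-1724 added with compounds to block cAMP breakdown; potency is read from the fitted curve at half-maximal effect; nearly all actives have a fitted effect of over 60% in size; about a fifth of the inactives were tested at one dose only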
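Cells in DMEM/10% FBS with G418 were pretreated with compounds in DMSO plus […] (300 uM stock) for 30 min at 37C. cAMP was measured by HTRF (cAMP-d2 plus anti-cAMP antibody-K) after 30 min at room temperature.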
D2 PAM = Beta-Arrestin HTS for Positive Allosteric Modulators of the Human D2 Dopamine Receptor: Potentiators. DiscoveRx D2 beta-arrestin cells, luminescence, 90 min; 100% = 57 uM dopamine signal. potentiation, % (test concentration not listed). hit rate 0.23% among 360,000; active = potentiation of 50% or more; inconclusive = 30% to 50%; inactive = 30% or less;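 also: compound concentration not given in the record; tested on top of an EC20 dose of dopamine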
Target sequence (P14416 whole entry, looked up): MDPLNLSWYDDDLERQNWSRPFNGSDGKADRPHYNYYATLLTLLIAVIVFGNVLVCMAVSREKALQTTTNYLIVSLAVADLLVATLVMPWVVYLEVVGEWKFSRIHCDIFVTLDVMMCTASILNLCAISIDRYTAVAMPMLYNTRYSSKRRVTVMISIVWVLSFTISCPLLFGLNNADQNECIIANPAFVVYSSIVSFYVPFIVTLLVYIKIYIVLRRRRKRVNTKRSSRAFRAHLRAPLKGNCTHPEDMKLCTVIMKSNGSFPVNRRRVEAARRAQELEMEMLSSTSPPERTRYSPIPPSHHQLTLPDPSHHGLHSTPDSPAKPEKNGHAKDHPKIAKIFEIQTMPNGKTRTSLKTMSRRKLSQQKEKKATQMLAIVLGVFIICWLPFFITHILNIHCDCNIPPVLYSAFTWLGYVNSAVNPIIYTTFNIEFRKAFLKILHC
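D2 cells co-treated with compound plus 50 nM dopamine (EC20) for 90 min at 37 deg C to detect potentiation. Beta-arrestin recruitment was read as enzyme-fragment luminescence after 1 h at ambient temperature. Full response was set by 57 uM dopamine.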
TRPV1 PAM = HTS Assay for Compounds that Act as Potentiators of the Vanilloid Receptor 1; hit rate 0.02% among 320,000; Transient receptor potential cation channel subfamily V member 1 (Homo sapiens), Q8NER1; TRPV1-expressing cells, Fluo-8 calcium influx, capsaicin EC20 potentiation; host cell line not named in the record; control for the full effect not named in the record; potentiation, % at 8.33 µM; active means potentiation above 80%; inconclusive means 30% to 80%; inactive means below 30%; also: 0% is about no effect
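Fluo-8 calcium influx in TRPV1-expressing cells, kinetic read (ex 480/em 520 nm). Compound added and read 3 min for agonist activity, followed by capsaicin at EC20 final and 2 min further read for enhancement.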
gsp antagonist = qHTS for Antagonists of gsp, the Etiologic Mutation Responsible for Fibrous Dysplasia/McCune-Albright Syndrome: qHTS | hit rate 0.4% among 340,000 | Potency, µM (series often up to 76.9 µM), for the others: at the top dose activity change, negative = inhibition, usual class: inhibitors | gsp-mutant cells, cAMP HTRF, 30 min; control for the full effect not named in the record; active = falling curve of any shape with a large fitted effect; inconclusive = falling curve, mostly with a smaller effect; inactive = flat or rising curve; cell line not stated here;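 also: intracellular cAMP measured with PDE inhibitor Ro 20-1724 present during compound exposure; potency is read from the fitted curve at half-maximal effect; % is scaled to controls: 0 for no effect and ±100 for the full control effect; nearly all actives have a fitted effect of over 65% in size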
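G418-selected cells were plated in DMEM/10% FBS for 16-24 h at 37C, then treated with compounds plus the PDE inhibitor […] (300 uM solution added) for 30 min at 37C. Intracellular cAMP was measured by HTRF after 30 min lysis at room temperature.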
ClpP mod = qHTS Assay for Activators of ClpP. ATP-dependent Clp protease proteolytic subunit (Bacillus subtilis (strain 168)), P80244. purified B. subtilis ClpP, FRET peptide cleavage, 20 min. Potency, µM (series often up to 57.5 µM), inactives show at the top dose activity change, negative = active. hit rate 1.9% among 340,000. AID 651965, 2013; active = well fitted falling curve with a large enough effect; inconclusive = small, poorly fitted or top-dose-only effect; inactive = no such curve, though single readings can be large or run the other way; also: potency is read from the fitted curve at half-maximal effect; the source files actives as falling curves though it sought activators and does not explain the sign; nearly all actives have a fitted effect of over 65% in size; many hits overshoot -100%
Target sequence (P80244 whole entry, looked up): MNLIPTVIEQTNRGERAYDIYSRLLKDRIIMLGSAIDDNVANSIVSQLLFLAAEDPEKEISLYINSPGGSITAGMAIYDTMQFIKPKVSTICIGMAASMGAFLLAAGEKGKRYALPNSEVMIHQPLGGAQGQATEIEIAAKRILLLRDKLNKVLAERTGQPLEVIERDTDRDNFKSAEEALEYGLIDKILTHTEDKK
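ClpP 10 microg/mL final, pH 8 Tris/KCl buffer with BSA, glycerol, Tween-20; compound pinned in; FRET-FV substrate; RT 20 min; Ex320/Em430; ΔFRET vs ADEP 5.8 microM, DMSO, no enzyme.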
* = called active by the depositor; ? = inconclusive; . = no result given; & = joins results of further samples; [ ] = remark or other dose.

SMILES | Sfp PPTase inh | Menin MLL FP FL | gsp ag | D2 PAM | TRPV1 PAM | gsp antagonist | ClpP mod
Cc1ccc(CC(=O)Nc2cccc(C(=O)Nc3c(C)n(C)n(-c4ccccc4)c3=O)c2)cc1C | . | . | ? | -8 | . | . | -0.6%
Cn1c(C(=O)NCCN2CCCCCC2)cc2c(=O)n(C)c3ccccc3c21 | -25% | 17 | ? | -7 | 10 | 6% | 4.4%
O=C(O)c1cnn(-c2nc(-c3ccc(Cl)cc3)cs2)c1C(F)(F)F | 9% | 6.9 | ? | -6 | -13 | -23% | .
CCCCCCN1C[C@@H](n2cc(C3CC3)nn2)[C@H](O)C[C@@H]1c1ccc(C)cc1 | . | . | 18% | -3 | . | . | -2.1%
CCCC12CN3CC(C)(CN(C1)C3c1ccc(OC(C)C)cc1)C2=O (stereo unspecified) | 6% | -1.8 | ? | 11 | 6 | 10% | -0.2%
COc1cc(C(=O)OCC(=O)Nc2ccccc2)cc2c1OCCO2 | . | . | 5% | -4 | . | . | -11%
CC(=O)c1cc2c(cc1NC(=O)CSc1nc3ccc(C)cc3[nH]1)OCO2 | 13% | 1.2 | 3%[15.4 µM] | -10 | ? | -1% | -0.7%
Cc1ccc(N2CC(C(=O)Nc3cccc(C(=O)NC4CC4)c3)CC2=O)cc1 (stereo unspecified) | . | . | 11% | -10 | 8 | 2% | -0.4%
O=C(CN(C(=O)CCC(=O)Nc1nccs1)c1ccc2c(c1)OCO2)NCc1ccccc1 | -11% | . | -7% | -14 | 6 | -1% | .
COc1ccc(C(c2nnnn2CCc2ccccc2)N2CCN(C3CCCC3)CC2)cc1OC (stereo unspecified) | -2% | -2.1 | -5% | -34 | 3 | 1% | -0.4%
O=C1C(C=NCC2CCCO2)=C(O)c2ccccc21 (stereo unspecified) | 19% | -1.6 | -56%[inhibitor] | -10 | 16 | 2% | 0.5%
COc1ccc(CCNS(=O)(=O)c2cn(C)c(=O)n(C)c2=O)cc1 | -4% | 2.3 | -13% | -3 | ? | 7% | 0.1%
O=c1nc(Oc2ccccc2)nc2ncccn12 | . | . | 7% | -16 | . | . | -1.0%
Cc1cc(C)c2c(NC(=S)NC(=O)c3ccccc3)n[nH]c2n1 | -1% | 3.5 | -8% | -2 | 0 | 4% | 1.8%
COc1ccc(S(=O)(=O)N(c2onc(C)c2Cl)S(=O)(=O)c2ccc(OC)c(OC)c2)cc1OC | 12% | -1.4 | 9% | 11 | -11 | -1% | 0.7%
CC(=O)C1=C(C)NC(=S)NC1c1cc([N+](=O)[O-])ccc1O (stereo unspecified) | -16% | 2.6 | 17% | -20 | -2 | 1% | -1.0%
COc1ccccc1CNC(=O)C(=O)NCC1OCCCN1S(=O)(=O)c1ccc(F)cc1C (stereo unspecified) | 2% | . | -45%[inhibitor] | 13 | 3 | 5% | -0.5%
CC(C)OCCCNc1nc2c(-c3ccccc3)nnn2c2ccccc12 | -3% | 1.6 | . | . | 25 | . | .
O=C(Cc1c[nH]c2ccccc12)N1CCN(c2ccccc2)CC1 | 20% | -1.7 | ? | -7 | -3 | -3% | -1.7%
O=C(Cc1ccsc1)NCC(c1ccco1)N1CCCCC1 (stereo unspecified) | 22% | 2.8 | 9% | -17 | 25 | -12% | -4.8%
CCCN1Cc2cccc(C(=O)NC(CC(=O)OCC)c3ccc(OC(C)C)cc3)c2C1=O (stereo unspecified) | -12% | 0.6 | ? | 3 | -17 | -2% | .
O=C(CNC(=O)c1ccc2c(c1)OCCO2)N/N=C/c1ccc(Cl)cc1 | 9% | -1.9 | 1% | -4 | 1 | 2% | 1.3%
COc1ccc(-n2cnnc2)cc1 | 11% | 1.4 | -9% | -2 | -17 | 15% | 0.5%
CC(NC(=O)Cn1nc(-c2ccccc2)c2ccccc2c1=O)c1ccccc1 (stereo unspecified) | -23% | 2.8 | -35%[inhibitor] | -18 | -19 | -9% | -1.9%
Cc1cc2ccccc2nc1SCC(=O)NC1CCCCC1 | 2% | -1.2 | ? | 2 | 4 | 13% | .
Later entries.
SMILES | Sfp PPTase inh | Menin MLL FP FL | gsp ag | D2 PAM | TRPV1 PAM | gsp antagonist | ClpP mod
O=C(CN(c1ccc(F)cc1)S(=O)(=O)c1ccc2c(c1)OCCO2)NCc1ccccn1 | 11% | 1.0 | -1% | -12 | 0 | -5% | 4.9%
O=C1COc2ccc(S(=O)(=O)CCC(=O)N3CCN(c4cccc(Cl)c4)CC3)cc2N1 | 16% | -0.1 | 6% | -13 | 0 | -4% | -3.3%
COc1cccc(-c2c(C(=O)O)cc(O)c3ccc(OC)cc23)c1 | . | . | 11% | 1 | . | -6% | .
Cc1ccc(NC(=O)COc2ccccc2C(=O)Nc2ccccc2)cc1Cl | -4% | -0.3 | 5% | -5 | 30 | 5% | -1.9%
CC1CCCCN1S(=O)(=O)c1ccc(S(=O)(=O)NCCc2ccncc2)cc1 (stereo unspecified) | 15% | 6.5 | 2% | -5 | -1 | -14% | 0.0%
CCS(=O)(=O)n1nc(-c2ccc(Cl)cc2)nc1SC | 56µM* | 2.0 | 12% | 8 | 0 | -5% | 0.8%
CCCCOCCCNS(=O)(=O)c1ccccc1 | 6% | 1.3 | -2% | 1 | 10 | 3% | -2.6%
CCc1ccccc1N(CC)C(=O)c1cn(C)c(=O)c2cc(OC)c(OC)cc12 | 7% | 3.3 | ? | 9 | -3 | 8% | -9.0%
CC(C)N1CCN(Cc2ccc(C#CCCO)cc2)CC1CCO (stereo unspecified) | -1% | 1.5 | ? | -10 | -1 | 8% | 1.5%
OCC1(CCCc2ccccc2)CCN(C2CCSCC2)CC1 | 8% | -1.5 | -4%[15.4 µM] | -19 | -13 | 14% | .
COc1cccc(C(=O)Nc2nnc(S(=O)(=O)N3CCOCC3)s2)c1 | 12% | . | 28% | -9 | -8 | -7% | -1.6%&-8.3%
CCC(=O)Nc1ccc(C(=O)NCc2ccccn2)cc1 | 22% | 0.2 | -12% | 0 | -2 | 6% | -1.4%
Cc1c(C(=O)N2CC(C)OC(C)C2)sc2nc(-c3ccccc3)cn12 (stereo unspecified) | 12% | 1.5 | . | . | 7 | . | .
Cc1ccc(NC(=O)COC(=O)c2cccc(N3C(=O)c4ccccc4C3=O)c2)cc1 | -1% | 1.3 | ? | 0 | 12 | -12% | 2.5%
CC1=N/C(=C\c2ccc([N+](=O)[O-])cc2)C(=O)N1c1ccc(Cl)cc1 | ? | 6.9 | -48%[inhibitor] | -16 | . | 0% | -1.2%
COC(=O)CSc1nnc(C)c(=O)[nH]1 | -5% | -0.7 | 7% | 5 | 3 | -22% | 0.0%
COc1ccc(CCNC(=O)CSc2nc3ccsc3c(=O)n2Cc2ccccn2)cc1OC | . | . | ? | -2 | . | . | -0.3%
Cc1ccc(C(=O)N2CC(=O)Nc3ccc(F)cc3C2c2ccc(F)cc2)cc1 (stereo unspecified) | -18% | ? | 5% | 0 | 2 | -4% | .
O=c1c2ccccc2nc(SCc2cc(=O)n3ccsc3n2)n1CCCO | 9% | 7.5 | . | . | 6 | . | .
CN1CCN(C(=O)C2=C[C@H](c3coc4ccccc4c3=O)C[C@H](OCc3ccc(CO)cc3)O2)CC1 | 12% | -2.8 | -4% | -9 | 19 | -4% | -0.3%
COc1ccc(C(=O)Nn2c(C)nc3ccccc3c2=O)cc1[N+](=O)[O-] | 7% | 3.1 | 12% | -11 | 3 | -6% | 0.8%
O=C(C[C@@H]1C/C=C\C[C@@H](Cc2ccc(F)cc2)C(=O)OCCNC1=O)NCCO | . | . | -4% | -9 | . | 9% | -1.6%
Cc1oc2cc(O)ccc2c(=O)c1N1C(=O)c2ccccc2C1=O | -3% | ? | 22% | -3 | 21 | -1% | 58%
O=C(Nc1nccs1)C1CCN(S(=O)(=O)c2ccc3c(c2)OCCCO3)CC1 | -18% | -0.6 | -34%[inhibitor] | -5 | 17 | -20% | 0.7%
Cc1ccc(C(=O)NC2CCN(C(=O)Nc3ccc(F)cc3)CC2)cc1 | 2% | -0.4 | -47%[inhibitor] | -11 | -12 | 11% | .
(further entries)
SMILES | Sfp PPTase inh | Menin MLL FP FL | gsp ag | D2 PAM | TRPV1 PAM | gsp antagonist | ClpP mod
O=C(CSc1n[nH]c(-c2cccs2)n1)NCCc1ccccc1 | . | . | -1% | -14 | ? | -20% | -6.2%
Cn1c(NCc2cccnc2)nc2c1c(=O)n(Cc1ccccc1F)c(=O)n2C | 10% | 5.4 | ? | -1 | 4 | -28% | -0.6%
COc1ccc([N+](=O)[O-])cc1N(CC(O)CN1C(=O)NC(C)(C)C1=O)S(=O)(=O)c1ccc(C)cc1 (stereo unspecified) | . | . | -71%[inhibitor] | -7 | . | . | -0.3%
Cc1ccc(NC(=O)CSCC(=O)NCCc2ccccc2)c(C)c1 | . | . | 20% | 2 | 0 | 3% | 2.0%
Cc1cc(C(=O)COc2ccc(-c3nnco3)cc2)c(C)n1Cc1ccccc1 | -3% | 3.1 | -50%[inhibitor] | 1 | -11 | -25% | 0.1%
Cc1cc(C)cc(-n2ncc3c2CCCC3NC(=O)c2cc(C)oc2C)c1 (stereo unspecified) | -7% | -0.8 | ? | -5 | 9 | ? | .
COc1ccc(/C=N\N=C2/SC(CC(=O)O)C(=O)N2c2ccc(O)cc2)cc1OC (stereo unspecified) | 11% | 0.7 | -12% | -22 | 7 | -5% | -0.6%
